PK Bst: alters activity of Bacillus stearothermophilus pyruvate kinase; partly purified Bacillus stearothermophilus pyruvate kinase, luminescence ATP production; ribose 5-phosphate activator present at AC10; Potency, µM; 1.2% of 51,000 active; AID 361; in the data active means potency below about 11 µM; inconclusive means mostly about 12 µM to 25 µM; inactive means weaker than that;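 the screen sought inhibitors and activators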;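 also: potency is read from the fitted curve at half-maximal effect; scaled between full activation by ribose 5 phosphate and full inhibition by luteolin; about four in five hits inhibit and the cells do not say which; series up to 57 µM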
YjeE inh: inhibitors of E. coli YjeE (TsaE); AID 605; 0.05% of 71,000 active; purified YjeE, fluorescence polarisation of a bound ADP probe; P0AF67; Potency, µM; active = well fitted falling curve; inconclusive = weaker or top-dose-only fall, or a rising curve; inactive = flat or poorly fitted curve;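 also: top concentration of the series not given in the record; excess ADP was the control for the full effect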
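Purified YjeE (10 uM) with BODIPY Texas Red-labeled ADP probe (2 uM); compounds pin-transferred, 15 min at room temperature. Binding inhibition read as decreased fluorescence polarization; ADP titration as control.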
* = called active by the depositor. A portion of the library; the hit share may differ from the screen's.

What do the screens show for `ClC(Cl)(Cl)Cl`?
YjeE inh: inactive

How did Cc1nc2cc(C(=O)N3CCC4(CC3)OCCO4)ccc2n1-c1ccc(Br)cc1 do in these assays?
PK Bst: >57; YjeE inh: inactive

Results for CC12CN3C(O)C(C)(C1)CC(C)(C2)C3O (configuration not stated) ?
PK Bst: >57; YjeE inh: inactive

How did NC(N)=NCCCCCCCCCCN=C(N)N do in these assays?
YjeE inh: inactive

Results for COc1ccccc1N1CCN(Cc2c(F)cccc2Cl)CC1 ?
YjeE inh: inactive

Results for Fc1cccc(F)c1CN1CCN(Cc2c(F)cccc2F)CC1 ?
PK Bst: >57; YjeE inh: inactive

How did O=C(Nc1ccccc1OC(=O)N1CCCCC1)N1CCCCC1 do in these assays?
YjeE inh: inactive

What do the screens show for `O=C(CN1C(=O)CCSc2ccccc21)N1CCC2(CC1)OCCO2`?
YjeE inh: inactive

What do the screens show for `CO[C@H]1[C@H](O)[C@H](O[C@@H]2[C@H](Oc3cccc4c(O)c5c(=O)oc6ccc(C)c7c(=O)oc(c34)c5c67)O[C@@H](C)[C@H](O)[C@H]2O)O[C@@H](C)[C@@H]1O`?
YjeE inh: inactive

What do the screens show for `C=CCCC#N`?
YjeE inh: inactive

3 records picked at random from those above, as already listed:
Results for COc1ccccc1N1CCN(Cc2c(F)cccc2Cl)CC1 ?
YjeE inh: inactive

What do the screens show for `CO[C@H]1[C@H](O)[C@H](O[C@@H]2[C@H](Oc3cccc4c(O)c5c(=O)oc6ccc(C)c7c(=O)oc(c34)c5c67)O[C@@H](C)[C@H](O)[C@H]2O)O[C@@H](C)[C@@H]1O`?
YjeE inh: inactive

Results for CC12CN3C(O)C(C)(C1)CC(C)(C2)C3O (configuration not stated) ?
PK Bst: >57; YjeE inh: inactive

(continued)
Results for O=C(Cn1cnc2sc3c(c2c1=O)CCCC3)NCCC(=O)N1CCC2(CC1)OCCO2 ?
PK Bst: >57; YjeE inh: inactive

What do the screens show for `O=C1OCCC1NC1=NCCC1` (configuration not stated)?
PK Bst: >57; YjeE inh: inactive

Results for CCOP(=O)(C#CC(C)(C)C)C1(O)CCCCC1 (configuration not stated) ?
PK Bst: >57; YjeE inh: inactive

How did CN(CC1COc2ccccc2O1)c1nc(-c2cccnc2)nc2ccccc12 (configuration not stated) do in these assays?
PK Bst: >57; YjeE inh: inactive

How did O=C1CCO1 do in these assays?
YjeE inh: inactive

What do the screens show for `CCCCn1c(O)c(C(C)=NCCCN(C)C)c(=O)[nH]c1=O`?
PK Bst: >57; YjeE inh: inactive

Results for C=COCCn1c(C)c(C(=O)OCC)c2cc(O)ccc21 ?
PK Bst: >57; YjeE inh: inactive

How did O=[N+]([O-])c1cccc2ccccc12 do in these assays?
YjeE inh: inactive

How did C[N+]1(C)CCc2cc3c(cc2[C@H]1[C@@H]1OC(=O)c2c1ccc1c2OCO1)OCO3 do in these assays?
PK Bst: >26

Results for N#CC(C#N)=Cc1ccc([N+](=O)[O-])c(O)c1 ?
YjeE inh: inactive

Results for COC(=O)[C@H](N)CCCN=C(N)N[N+](=O)[O-] ?
YjeE inh: inactive

How did CN1C(=O)CCS(=O)(=O)[C@H]1c1ccc(Cl)cc1 do in these assays?
YjeE inh: inactive

Results for OC(c1ccc(Cl)cc1)(c1ccc(Cl)cc1)C(Cl)(Cl)Cl ?
YjeE inh: inactive

How did CCCOC(=O)c1ccccc1C(=O)OCCC do in these assays?
YjeE inh: inactive

Results for CC(NC(=O)Oc1ccccc1)C(c1cccs1)N1CCOCC1 (configuration not stated) ?
PK Bst: >57; YjeE inh: inactive

What do the screens show for `CCn1nc(-c2cccs2)nc2c(=O)n(C)c(=O)nc1-2`?
PK Bst: >57; YjeE inh: inactive

Results for NP(N)(=O)NC(=O)c1ccc(F)cc1 ?
YjeE inh: inactive

How did CN1CCN(C(=O)COc2ccc(-c3nc4ccccc4s3)cc2)CC1 do in these assays?
PK Bst: 1*; YjeE inh: inactive

How did CC[C@]1(OC(=O)CN)C(=O)OCc2c1cc1n(c2=O)Cc2cc3ccccc3nc2-1 do in these assays?
YjeE inh: inactive

How did CN1C(=O)N(C)C(=O)C(CCc2ccncc2)(Cc2ccc3c(c2)OCO3)C1=O do in these assays?
YjeE inh: inactive

How did CCCn1c(=O)c2[nH]c(C3CCCC3)nc2n(CCCOC(=O)c2ccc(S(=O)(=O)F)cc2)c1=O do in these assays?
YjeE inh: inactive

Results for N=C(N)SCc1ccc(Cl)c2ccccc12 (tested in a mixture with another compound) ?
YjeE inh: inactive

How did CN1[C@@H](C[C@@H](O)c2ccccc2)CCC[C@@H]1C[C@H](O)c1ccccc1 do in these assays?
YjeE inh: inactive

What do the screens show for `CC[N+](CC)(CCCNC1=CC(=O)C(NCCC[N+](CC)(CC)Cc2ccccc2)=CC1=O)Cc1ccccc1`?
YjeE inh: inactive

Results for CC(=O)[C@@]1(O)CC[C@H]2[C@@H]3CC=C4C[C@@H](O)CC[C@]4(C)[C@H]3CC[C@@]21C ?
PK Bst: >26

What do the screens show for `c1cncc(CNC2=NCCC2)c1`?
PK Bst: >57; YjeE inh: inactive

What do the screens show for `ClCc1ccccn1`?
YjeE inh: inactive

Results for CNC(=O)[C@H]1C[C@@H]1[C@H](NP(=O)(c1ccccc1)c1ccccc1)c1ccccc1 ?
YjeE inh: inactive

How did COc1cc(CN2C(=O)NC(=O)C3(Cc4cc(C)ccc4N(C)C3)C2=O)cc(OC)c1 (configuration not stated) do in these assays?
PK Bst: >57; YjeE inh: inactive

Results for CN(C)P(=NC(=S)c1cccn1C)(N(C)C)N(C)C ?
PK Bst: >57; YjeE inh: inactive

What do the screens show for `O=C(COc1ccccc1)N1CCN(CC2CC3C=CC2C3)CC1` (configuration not stated)?
PK Bst: >57; YjeE inh: inactive

How did COC1=CC(=O)O[C@@H](/C=C/c2ccc3c(c2)OCO3)C1 do in these assays?
YjeE inh: inactive

What do the screens show for `CC(=O)N1CC[N+](C)(C)CC1`?
YjeE inh: inactive

How did COc1ccc(C(=O)CC2C(=O)N(C)C(=O)N(C)C2=O)cc1 do in these assays?
PK Bst: >26

How did COc1ccccc1N do in these assays?
YjeE inh: inactive

How did CN1C(=O)CN=C(c2ccc(Cl)cc2)c2cc(Cl)ccc21 do in these assays?
PK Bst: >26

Results for CCN1C[C@@]2(COC)[C@H]3[C@@H](OC)[C@H]4C1[C@@]3([C@H](OC)C[C@@H]2O)[C@H]1C[C@@]2(O)[C@@H](OC(=O)c3ccccc3)[C@@H]1[C@@]4(OC(C)=O)[C@H](O)[C@@H]2OC ?
YjeE inh: inactive

Results for Cc1ccc(CC2C(=O)N(C)C(=O)N(C)C2=O)s1 ?
YjeE inh: inactive

Results for N#CCCCC[N+]12CN3CN(CN(C3)C1)C2 ?
YjeE inh: inactive

How did C1CC2OC2CC1C1CO1 (configuration not stated) do in these assays?
YjeE inh: inactive

How did O=C(Nc1ccc([As](=O)(O)O)cc1)Nc1cccc(Cl)c1Cl do in these assays?
YjeE inh: inactive

Results for COc1ccc(N2CCN(CCCN)CC2)cc1 ?
PK Bst: >57; YjeE inh: inactive

How did O=C(O)[C@H](Cc1cnc[nH]1)N1C(=O)c2ccccc2C1=O do in these assays?
YjeE inh: inactive

How did C=CCn1c(O)c(C(=O)CCCCCC)c(=O)[nH]c1=O do in these assays?
PK Bst: >57; YjeE inh: inconclusive

What do the screens show for `O=C1CC(N2CCC(n3c(=O)[nH]c4ccccc43)CC2)C(=O)N1c1ccc(F)cc1` (configuration not stated)?
PK Bst: >57; YjeE inh: inactive

How did O=c1[nH]c(=O)n(Cc2ccco2)c(O)c1C=NCc1cccs1 do in these assays?
PK Bst: >57; YjeE inh: inactive

How did CCCCn1c(C)c(C(=O)OCC)c2c(CN3CCOCC3)c(O)ccc21 do in these assays?
YjeE inh: inactive

Results for CP(=O)(O)C1=CCNCC1 ?
YjeE inh: inactive

How did CC(C)Cc1[nH]c(=O)c(C#N)c2c1CCC2 do in these assays?
PK Bst: >26

Results for CCN1c2nc3ccccn3c(=O)c2CC2(C(=O)N(C)C(=O)N(C)C2=O)C1C (configuration not stated) ?
PK Bst: >57; YjeE inh: inactive

How did CN(C)C(=O)Oc1ccc(C(=O)c2ccccc2)cc1 do in these assays?
YjeE inh: inactive

How did N=Cc1c(O)n(-c2cccc(Cl)c2)c(=O)[nH]c1=O do in these assays?
PK Bst: >57; YjeE inh: inactive

Results for CCCCn1c(O)c(C=NCCCN(CC)CC)c(=O)[nH]c1=O ?
PK Bst: >57; YjeE inh: inactive

What do the screens show for `Cc1cccc(N2C(=O)NC(=O)C3(Cc4cc(C)ccc4N(C)C3)C2=O)c1` (configuration not stated)?
PK Bst: >57; YjeE inh: inactive

How did CCC[C@@](C)(COC(N)=O)COC(=O)NC(C)C do in these assays?
YjeE inh: inactive

Results for CC1(C)NCCN2C(=O)CSC21 (configuration not stated) ?
PK Bst: >26

How did C[Se]C[C@@H](N)C(=O)O do in these assays?
YjeE inh: inactive

What do the screens show for `Oc1c(Cl)c(Cl)c(Cl)c(Cl)c1Cl` (tested in a mixture with another compound)?
YjeE inh: inactive

Results for Oc1cc2c(cc1CN1CCN(c3ccccc3)CC1)CCC2 ?
PK Bst: >57; YjeE inh: inactive

What do the screens show for `CCn1c(=O)n(CC(=O)N2CCC3(CC2)OCCO3)c(=O)c2ccccc21`?
PK Bst: >57; YjeE inh: inactive

Results for COc1ccc(NC(=O)CN2C3CCC2CC(O)(c2cccnc2)C3)cc1OC (configuration not stated) ?
PK Bst: >57; YjeE inh: inactive

Results for O=S1OCC2C(CO1)C1(Cl)C(Cl)=C(Cl)C2(Cl)C1(Cl)Cl (configuration not stated) ?
YjeE inh: inactive

What do the screens show for `O[C@H](CN1CC1)[C@@H](O)CN1CC1`?
YjeE inh: inactive

What do the screens show for `CCCn1nc2ccccc2c1P(=O)(N1CCOCC1)N1CCOCC1`?
PK Bst: >57; YjeE inh: inactive

How did Nc1ccc(CCN2CCN(c3cccc(C(F)(F)F)c3)CC2)cc1 do in these assays?
YjeE inh: inactive

What do the screens show for `O=C1CC(C(=O)N2CCC3(CC2)OCCO3)CN1CCc1ccccc1` (configuration not stated)?
PK Bst: >57; YjeE inh: inactive

Results for CCCCCCn1c(O)c(C=NC2CCCCC2N)c(=O)[nH]c1=O (configuration not stated) ?
PK Bst: 2.7*; YjeE inh: inactive

What do the screens show for `Nc1ncnc2c1ncn2[C@@H]1O[C@@H](COP(=O)(O)CP(=O)(O)OP(=O)(O)O)[C@H](O)[C@@H]1O`?
YjeE inh: inactive

Results for O=c1c2ccccc2nc(CN2CCOCC2)n1-c1ccccc1F ?
PK Bst: >57; YjeE inh: inactive

Results for Cc1nc2ccccc2n1C1CCN(Cc2nnnn2CCc2ccccc2)CC1 ?
PK Bst: >57; YjeE inh: inactive

Results for Nc1ccc(Cc2ccc(N)cc2)cc1 ?
YjeE inh: inactive

How did COC(=O)NC(=S)Nc1ccccc1NC(=S)NC(=O)OC do in these assays?
YjeE inh: inactive

Results for O=C(C1c2ccccc2C(=O)N2CCc3ccccc3C12)N1CCC2(CC1)OCCO2 (configuration not stated) ?
PK Bst: >57; YjeE inh: inactive

Results for CSc1ccc(C(=O)C(C)(C)N2CCOCC2)cc1 ?
PK Bst: >57; YjeE inh: inactive

What do the screens show for `CC(C)NS(=O)(=O)c1ccc(OCC(=O)N2CCN(Cc3ccccc3)CC2)c(Cl)c1`?
PK Bst: >57; YjeE inh: inactive

How did Clc1ccc(C2=CCC[C@H]3CC[C@@H]2N3)cn1 do in these assays?
YjeE inh: inactive

How did Cc1ncc([N+](=O)[O-])n1CCN=[N+]=[N-] do in these assays?
YjeE inh: inactive

How did CN(C)[C@@H]1C(=O)C(C(N)=O)=C(O)[C@@]2(O)C(=O)C3=C(O)c4c(O)ccc(Cl)c4[C@@](C)(O)C3C[C@@H]12 (some centres not stated) do in these assays?
PK Bst: >26

What do the screens show for `O=C(Cn1ncc2c3ccccc3n(Cc3cccc(Cl)c3)c2c1=O)N1CCC2(CC1)OCCO2`?
PK Bst: >57; YjeE inh: inactive

What do the screens show for `COC(=O)c1c(N)n(Cc2ccc(OC)cc2)c2nc3ccccc3nc12`?
PK Bst: >57; YjeE inh: inactive

Results for CCOC(=O)C1=C(N)OC(C)=C(C(=O)OCCOC)C12C(=O)Nc1ccccc12 (configuration not stated) ?
PK Bst: >57; YjeE inh: inactive

How did CCOC(=O)c1cncn1C(C)c1ccccc1 (configuration not stated) do in these assays?
PK Bst: >57; YjeE inh: inactive

What do the screens show for `c1cncc([C@H]2CCCCN2)c1`?
YjeE inh: inconclusive

Among those listed so far, 7 contain an aryl methoxy group.
Results for COc1ccccc1N1CCN(Cc2c(F)cccc2Cl)CC1 ?
YjeE inh: inactive

How did COc1cc(CN2C(=O)NC(=O)C3(Cc4cc(C)ccc4N(C)C3)C2=O)cc(OC)c1 (configuration not stated) do in these assays?
PK Bst: >57; YjeE inh: inactive

How did COc1ccc(C(=O)CC2C(=O)N(C)C(=O)N(C)C2=O)cc1 do in these assays?
PK Bst: >26

How did COc1ccccc1N do in these assays?
YjeE inh: inactive

Results for COc1ccc(N2CCN(CCCN)CC2)cc1 ?
PK Bst: >57; YjeE inh: inactive

Results for COc1ccc(NC(=O)CN2C3CCC2CC(O)(c2cccnc2)C3)cc1OC (configuration not stated) ?
PK Bst: >57; YjeE inh: inactive

What do the screens show for `COC(=O)c1c(N)n(Cc2ccc(OC)cc2)c2nc3ccccc3nc12`?
PK Bst: >57; YjeE inh: inactive

Source: PubChem (National Center for Advancing Translational Sciences (NCATS))
